Autofluor counter: counter-screen for toxin protease inhibitors: compound fluorescence. fluorescence intensity (concentration not given with the values). compound autofluorescence counterscreen, microsphere flow cytometry; stronger effect = higher value. 3.1% of 360,000 active. AID 624483;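 active = at least 3 SD above the mean of all compounds, about 16000 in these data; inconclusive = too few beads counted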;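 note: 100 nL of 1 mM stock went into each well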
PrP UTR inh: inhibition of PrP 5' UTR reporter expression | AID 488862, 2010 | 0.35% of 340,000 active | inhibition, % (concentration not given with the values) | cell-based PrP 5' UTR mRNA reporter, plate reader;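 active = every replicate at 50% or more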;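 note: 0 = median of the neutral control wells; tested in H4 reporter cells; numbers are from one replicate; inactives centre near -14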
ugtP null kill: growth inhibition of ugtP-null S. aureus, primary screen, RN4220 ugtP deletion, OD600. 16 h; some inactives read as strong as hits. growth inhibition, % (no concentration beside the values). 0.54% of 330,000 active. AID 1259309, 2017;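 active = z-score under -3 and OD600 up to 0.15 on both plates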;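 note: plate controls were untreated wells for no effect and antibiotic for full effect; wells of about 80 µL received 100 nL stock; the first replicate is given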
RN4220 kill: growth inhibition of S. aureus RN4220, primary screen, OD600 | AID 1259311, 2017 | inhibition, % (no concentration beside the values) | 0.33% of 330,000 active | 16 h;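 active = z-score of -3 or lower and OD600 up to 0.18 on both plates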;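 note: plate controls were untreated cells for no effect and reference antibiotic for full effect; stock transfer was 100 nL into about 80 µL; one replicate is shown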
Mtb hypoxia inh: PubChem AID 1159583. M. tuberculosis hypoxia-regulated fluorescent reporter, fluorescence. fluorescence inhibition, % (test concentration not listed). 0.1% of 300,000 active;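 active = 35 to 45% if threefold the growth effect, above 45% if 1.5-fold the growth effect; inactive = the rest, general growth blockers included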;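 note: wells of about 50 µL received 100 nL stock; 0% = vehicle wells and 100% = reference inhibitor wells; whole bacteria with a GFP reporter of the hypoxia response; strong numbers were not always called active; many hits fall short of the cut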
BJeLR lethal: MLPCN primary cell-based screen for lethality selective to Ras in HRASV12 cells; BJeLR (HRASV12) viability, CellTiter-Glo ATP luminescence, 48 h; reference of the scale not given here; inhibition, % (test concentration not listed); 0.17% of 300,000 active;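 active = replicate mean above 50%; inconclusive = above 50% but judged a plate artefact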;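 note: 50 nL library stock added to about 25 µL; numbers are from one replicate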
Mtb hypoxia inh growth: further read-out of Mtb hypoxia inh, marked with its call; growth inhibition, %; measured here: M. tuberculosis growth (absorbance);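 0% = vehicle and 100% = reference antibiotic; read after six days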
An asterisk follows results filed as active; ? = inconclusive; / = no result given; & = joins results of further samples.

SMILES	Autofluor counter	PrP UTR inh	ugtP null kill	RN4220 kill	Mtb hypoxia inh	Mtb hypoxia inh growth	BJeLR lethal
O=C(COC(=O)c1ccc(S(=O)(=O)NCc2ccco2)cc1)NCc1ccc(F)cc1	4689	0	7	2.7	2	-13	/
CC(=NNC(=O)c1cccnc1)c1ccc(C)c([N+](=O)[O-])c1	/	/	7	-2.9	8	5	/
CC(C)CCc1noc(CN(CC2CCC2)CC2CCCO2)n1 (configuration not stated)	3836	-11	-2	3.5	13	1	-6
COc1cc(OC)nc(S(C)(=O)=O)n1	8389	-33	1	5.4	17	8	-1
CCOC(=O)c1cc(S(=O)(=O)Nc2ccc(F)cc2F)cn1C	5035	-3	3	4.7	-1	-5	-4
COC(=O)COc1c(Cl)cc(C(c2c(C)[nH][nH]c2=O)c2c(C)[nH][nH]c2=O)cc1OC	3067	6	4	3.1	7	-15	4
CC1(C(=O)OCC(=O)Nc2ccccc2)CC1(Cl)Cl (configuration not stated)	3962	-13	-1	-6.5	-7	-4	2
COc1ccc(NC(=O)CSc2ccccc2)cc1S(=O)(=O)N1CCOCC1	4353	-4	1	0.8	7	1	2
O=C(O)CSc1nc(-c2ccccc2)nc2c1CCCC2	4172	-22	12	1.1	1	2	4
Cc1ccccc1NC(=O)c1c(-c2ccccc2)noc1C	2772	-12	-4	4.6	-9	-1	4
COCCc1nnc(NC(=O)C23CC4CC(CC(C4)C2)C3)s1	3528	-9	10	1.6	11	8	0
CCCCC(=O)Nc1ccc(NC(=O)c2ccc(C)c([N+](=O)[O-])c2)cc1OC	2105	-6	-1	3.9	7	4	0
NC(=O)c1cc2cc(Br)ccc2o/c1=N/NC(=O)c1cccc(F)c1	3853	-14	/	/	/	/	6
Cc1sc2nc(SCC(=O)NCc3ccco3)n(CCc3ccccc3)c(=O)c2c1C	4091	-20	-13	6.0	1	3	41
O=C(CN(C1CCCCC1)S(=O)(=O)c1ccccc1)NCC1CCCO1 (configuration not stated)	5884	-10	3	-0.9	-7	-1	-12
COc1ccc(C(C)=O)cc1CN1C(=O)NC2(CCCCC2)C1=O	2657	-10	-6	-2.7	4	7	5
Cc1nn(-c2ccccc2)c(C)c1/C=C1\C(=O)N(C)C(=S)N1C	4281	12	0	0.1	-13	-13	5
Cc1ccccc1NC(=O)c1ccc(CN2CC(=O)N3CCCCC3C2=O)cc1 (configuration not stated)	6020	-55	5	3.1	2	5	6
O=C(NN=Cc1cccs1)c1ccc2ncccc2c1	/	/	2	-0.9	9	1	/
COc1ccc(C)cc1NC(=O)COC(=O)CCC(=O)c1cccs1	5723	-6	5	0.8	1	-7	/

Three compounds from above with just Mtb hypoxia inh growth and RN4220 kill.
Structure	Mtb hypoxia inh growth	RN4220 kill
Cc1nn(-c2ccccc2)c(C)c1/C=C1\C(=O)N(C)C(=S)N1C	-13	0.1
Cc1ccccc1NC(=O)c1ccc(CN2CC(=O)N3CCCCC3C2=O)cc1 (configuration not stated)	5	3.1
O=C(NN=Cc1cccs1)c1ccc2ncccc2c1	1	-0.9

Continued.
SMILES	Autofluor counter	PrP UTR inh	ugtP null kill	RN4220 kill	Mtb hypoxia inh	Mtb hypoxia inh growth	BJeLR lethal
CCc1ccc(N(CC(=O)Nc2ccc(OC)cc2OC)S(C)(=O)=O)cc1	2177	-24	3	4.8	11	6	-11
C=CCc1cccc(OC)c1OCCOCCNCCO	4746	-2	0	-0.2	5	10	9
Brc1ccc(N=Nc2ccc3ccccc3n2)cc1	/	82*	9	-1.5	-23	-13	23
CCOC(=O)c1ccc(NC(=O)NNC(=O)CCc2ccc(OC)cc2)cc1	4400	-13	-3	-3.6	-2	-11	6
Cc1ccc(NC(=O)C2CCCN2C(=O)Oc2ccccc2)cc1 (configuration not stated)	2155	8	5	4.9	/	/	1
CC(C)(C)n1cnc2cc(NCc3ccc(Br)cc3)ccc21	3195	-51	18	8.9	-2	10	2
O=S(Cc1ccc(Cl)cc1)c1ccccc1 (configuration not stated)	3043	-10	13	9.4	9	6	/
CC(=O)N1CCOc2ccc(S(=O)(=O)Nc3cccc(C)c3)cc21	5718	-23	4	7.8	0	2	7
CCc1ccc(NC(=O)CSc2nc(=O)n(CCCN3CCOCC3)c3c2CCCC3)cc1	6319	-17	9	3.7	5	1	10
Cc1cccc(NS(=O)(=O)c2cc(C(=O)N3CCCC3)ccc2Cl)c1	2507	-20	0	3.3	3	7	-3
O=C(CN1CCc2ccccc2C1)Nc1ccccc1Cl	3050	-30	11	2.9	10	-8	-1
CCOC(=O)c1c(-c2ccccc2)csc1N1C(=O)Nc2ccccc2N1O	2754	-12	-7	11	1	-1	1
CN1C/C(=C/c2cccnc2)C(=O)/C(=C/c2cccnc2)C1	2015	-13	7	7.2	20	19	/
CC1CCN(Cc2c(C(=O)NN=Cc3ccc(C(C)(C)C)cc3)nnn2-c2nonc2N)CC1	/	/	-4	2.0	-1	-10	/
COc1ccc(C(=O)/C=C/c2cc(OC)c(O)c(OC)c2)c(F)c1	2606	-18	0	12	2	3	-20
CCOC(=O)C(C)N(c1ccccc1Cl)S(C)(=O)=O (configuration not stated)	3669	-11	-1	6.8	12	4	/
C=C(C)C(=O)Nc1cccc(C2=NOC3(C2)CC(C(N)=O)N(C(=O)C2(C)CC2)C3)c1 (configuration not stated)	/	/	-4	8.9	5	11	/
O=C(Nc1ccnn1C1CCN(C(=O)c2ccc(C(F)(F)F)cc2)CC1)C1CC1	5719	-9	5	3.3	-1	6	8
COc1cccc(NC(=O)C(C)C)c1	3571	-19	2	5.7	7	7	8
COc1cccc(N2CCN(c3ccc([N+](=O)[O-])cn3)CC2)c1	3746	-20	4	4.6	-6	5	-5

Entries of single compounds, looked up by structure. Order of values: Autofluor counter	PrP UTR inh	ugtP null kill	RN4220 kill	Mtb hypoxia inh	Mtb hypoxia inh growth	BJeLR lethal
`CCc1ccc(N(CC(=O)Nc2ccc(OC)cc2OC)S(C)(=O)=O)cc1` is entered as 2177	-24	3	4.8	11	6	-11
`CC(=O)N1CCOc2ccc(S(=O)(=O)Nc3cccc(C)c3)cc21` is entered as 5718	-23	4	7.8	0	2	7
`CC1CCN(Cc2c(C(=O)NN=Cc3ccc(C(C)(C)C)cc3)nnn2-c2nonc2N)CC1` is entered as /	/	-4	2.0	-1	-10	/
`COc1ccc(C(=O)/C=C/c2cc(OC)c(O)c(OC)c2)c(F)c1` is entered as 2606	-18	0	12	2	3	-20

(cont.)
SMILES	Autofluor counter	PrP UTR inh	ugtP null kill	RN4220 kill	Mtb hypoxia inh	Mtb hypoxia inh growth	BJeLR lethal
CCCOc1cccc(C(=O)N(Cc2ccccc2)C2CCS(=O)(=O)C2)c1 (configuration not stated)	6029	-33	11	-2.1	12	-1	11
CSc1ccc(CCNS(=O)(=O)c2ccc3c(c2)C(C)(C)C(=O)N3C)cc1	5961	-26	0	4.5	-6	-3	0
C[N+](C)(C)CCCC(=O)c1ccc2c(c1)OCO2	4398	-17	-6	0.6	/	/	-3
CSc1nc(C)c(Cl)c(C)c1C#N	4723	6	9	6.9	/	/	-1
COc1ccc(-c2n[nH]c(=S)n2Cc2ccccc2)cc1OC	3064	-18	8	4.9	11	3	-1
CN(Cc1ccccc1)C(=O)c1cn(C)c2ccc(S(=O)(=O)N3CCCC3)cc2c1=O	5433	-7	-1	-1.6	-7	15	-5
Cc1cc(C)cc(OCC(=O)OCC(=O)Nc2ccc(Cl)cn2)c1	3686	-1	12	8.8	/	/	0
O=C(OC(C(=O)NC1CCCC1)c1ccncc1)C1=Cc2ccccc2OC1 (configuration not stated)	3548	-5	3	3.3	3	8	-3
O=C(O)c1cccc(NC(=S)NC(NC(=O)c2ccccc2[N+](=O)[O-])C(Cl)(Cl)Cl)c1 (configuration not stated)	2151	-20	7	5.2	7	7	/
COC(=O)[C@H](C)NC(=O)NCCC1=CCCCC1	5068	-8	9	2.8	-3	-4	-4
CCCC(=O)Oc1cccc(C2NC(=O)c3ccccc3O2)c1 (configuration not stated)	3693	-14	5	-1.9	18	11	-3
CCCCCC(C)NC(=O)CN1C(=O)NC(C)(c2ccc3ccccc3c2)C1=O (configuration not stated)	5694	-21	-1	4.6	8	7	3
O=C(NCCCn1ccnc1)c1cc(C2CC2)on1	5426	-20	12	6.4	2	8	-8
COc1ccc(NC(=O)O/N=C/c2ccc(N(C)C)cc2)cc1	3253	-13	/	/	/	/	5
Cc1ncoc1C(=O)N1CCCC(N2CCN(c3cccc(C(F)(F)F)c3)CC2)C1 (configuration not stated)	6213	-6	1	4.2	4	6	-3
Cc1cccc(OCC(=O)NN=C/C=C/c2ccco2)c1	/	/	5	2.6	8	10	/
COc1cc(C(F)(F)F)nc2c(Br)c(C(C)(C)C)nn12	/	/	13	4.9	1	2	-1
Cc1ccc(S(=O)(=O)NC(=O)N2CCCN(Cc3ccc(F)cc3)CC2)cc1	5912	-17	4	2.4	13	19	-3
CCN(Cc1ccccc1)Cc1ccc(OCc2ccccc2)c(OC)c1	4440	-37	16	0.1	0	-1	0
CC(NC(=O)NC12CC3CC(CC(C3)C1)C2)c1ccc2c(c1)OCO2 (configuration not stated)	4291	-36	7	-2.5	15	12	6
O=C(NCC(c1cccnc1)N1CCOCC1)c1cccs1 (configuration not stated)	3447	-4	2	1.9	-62	31	0
Cc1cc(Cl)ccc1NC(=O)COC(=O)c1nc2nccc(C)n2n1	4593	-37	5	11	9	13	-1
CCn1c(C)c(C(C)=O)c(SC)nc1=S	2291	2	1	0.5	/	/	-2
CCN(CC)S(=O)(=O)c1ccc(C)c(NC(=O)COc2ccc3c(C)cc(=O)oc3c2)c1	2339	-22	1	2.3	15	2	4
O=C(Cc1cc(=O)[nH][nH]1)NN=C/C(Cl)=C/c1ccccc1	/	/	-9&-2	-0.9&11	5&1	13&15	/
COc1cccc(-n2c(SCC(=O)Nc3cc(C)on3)nc3ccccc3c2=O)c1	10867	/	-8	3.9	3	3	-1
CCCCCCCC(=O)N/N=C/c1cccnc1	4129	-16	/	/	/	/	-4
CC1CN(C(C)CO)C(=O)c2cccc(NS(=O)(=O)c3ccccc3)c2OC1CN(C)C(=O)NC1CCCCC1 (configuration not stated)	/	/	0	5.3	12	6	/
COc1ccccc1N1CCN(Cc2nc3ccsc3c(=O)[nH]2)CC1	4231	-20	3	-0.2	/	/	-2
CCOc1ccc(NC(=O)CN(C)C(=O)CCNC(=O)c2ccccc2Cl)cc1OCC	5473	-9	8	4.9	6	2	5
COc1cc(OC)c(NC(=O)CCNC(=O)Cn2ccc3ccccc3c2=O)cc1Cl	9512	-1	2	2.5	9	11	-5
CC(C)CCNC(=O)CCn1nc(-c2ccccc2)ccc1=O	2792	10	10	5.7	5	2	1
COc1ccccc1NC(=O)C(=O)Nc1ccc2c(c1)N(C(=O)C1CC1)CCC2	?	-22	2	2.9	5	2	12
COC(=O)Cc1cc(=O)n2[nH]c(C)c(-c3ccccc3)c2n1	3264	-14	-1	-12	15	5	8
CCCCNC(=O)CSc1nc2cc3c(cc2c(=O)n1CCCC(=O)NCCc1ccc(OC)c(OC)c1)OCO3	4307	-10	6	9.4	-2	3	11
CC(C)NC(=O)c1ccc(NC(=O)CC2SC(N3CCCCC3)=NC2=O)cc1 (configuration not stated)	?	-9	2	-1.1	-8	-6	/
COc1ccc(-c2ocnc2C(=O)N2CCN(C(c3ccccc3)c3ccccc3)CC2)cc1	2484	8	15	-8.9	-2	6	4
Cc1cccc2cc3c(NC(=O)C(C)C)nn(C)c3nc12	2901	-34	-7	-17	1	3	5
O=C(c1cccc([N+](=O)[O-])c1)N(c1ccccn1)c1ccccn1	2488	-23	6	3.6	0	-4	2
Cc1ccc(C(O)Cn2cc([N+](=O)[O-])nc2C)cc1 (configuration not stated)	4480	-26	2	1.9	5	11	-4
O=C(Cn1cnc([N+](=O)[O-])n1)N/N=C/c1cccc2ccccc12	2656	-17	/	/	/	/	-4
COc1cccc(C(=O)NCC(=O)NN=Cc2cccs2)c1	/	/	6	1.7	-10	0	/
COc1ccc(-c2cccc(NS(=O)(=O)c3cc([N+](=O)[O-])ccc3C)c2)nn1	/	-10	-3	12	2	0	-9
Cc1ccc(Oc2cc(NN3CCCCC3)c([N+](=O)[O-])cc2[N+](=O)[O-])c([N+](=O)[O-])c1	3149	-4	17	21	6	1	-2
Cc1[nH]n2c(=O)cc(C(C)(C)C)nc2c1-c1ccccc1	4730	23	96*	65	6	4	6
COc1cc(CN2CCN(S(=O)(=O)c3ccc(NC(C)=O)cc3)CC2)cc(OC)c1O	5207	-22	13	5.8	8	1	-2
